HCMV UL50-53 inh = disrupts HCMV UL50-UL53 complex binding; 190,000 compounds, 0.15% hits; HTRF UL50-UL53 interaction, normalized percent inhibition; inhibition, % (test concentration not listed); AID 1918969;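 active = both replicates at 50% or more, plus weaker picks with an unusually low signal ratio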;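 also: stock transfer was 100 nL into about 20 µL; 0% = negative control wells and 100% = wells with untagged competitor protein; inactives centre near -12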
GIV Gai3 FP = GIV-Galpha-i interaction inhibition; Galpha-i3/FITC-GIV peptide fluorescence polarization, 90 min; stronger effect = lower value; scaled: aluminum fluoride 0%, vehicle 100%; percent of control (FP), % (test concentration not listed); 210,000 compounds, 0.42% hits; AID 1224905;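 active = replicate mean at 85% of control or lower, very high polarization wells dropped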;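 also: wells of about 15 µL received 100 nL stock; the first replicate is given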
Target sequence (P08753 whole entry, looked up): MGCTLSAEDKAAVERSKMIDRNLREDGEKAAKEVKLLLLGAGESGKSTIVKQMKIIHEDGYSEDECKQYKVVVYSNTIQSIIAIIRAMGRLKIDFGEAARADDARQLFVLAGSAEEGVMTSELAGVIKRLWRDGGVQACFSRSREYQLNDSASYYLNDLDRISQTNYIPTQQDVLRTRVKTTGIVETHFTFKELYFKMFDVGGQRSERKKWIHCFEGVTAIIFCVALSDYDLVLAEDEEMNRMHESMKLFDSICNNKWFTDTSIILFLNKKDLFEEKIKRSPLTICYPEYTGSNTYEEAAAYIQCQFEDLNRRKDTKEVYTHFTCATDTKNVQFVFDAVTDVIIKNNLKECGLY
Sa growth 42C = inhibitors of Staphylococcus aureus growth at 42 °C. S. aureus RN4220 growth, OD600, 20 h; stronger effect = lower value. relative growth, % (test concentration not listed). 170,000 compounds, 0.53% hits. AID 720641;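 active = growth at 42 °C up to 50% and 20 or more points under that at 30 °C, or under 10% at both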;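 also: 300 nL library stock went into each well; scaled to the means of positive and negative controls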
Sa growth 42C second temp = second read-out of Sa growth 42C, no call of its own (marks repeat the call); relative growth, %; measured here: growth at 30 °C;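 optical density after 20 h as mean of two plates; 100% = untreated growth and lower means inhibition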
* = called active by the depositor; . = not tested or not shown; & = joins results of further samples.

Structure	HCMV UL50-53 inh	GIV Gai3 FP	Sa growth 42C	Sa growth 42C second temp
O=C(CCCn1c(=O)c2cccn2c2ccc(Br)cc21)N1CCCC1	-13	102	.	.
COc1ccc(C2=NN(C(=O)COc3ccc(NC(=O)c4ccco4)cc3)C(c3ccco3)C2)cc1 (stereo not given)	-23	.	71	85
CC(Nc1ccccc1CO)C(=O)N1CCOCC1 (stereo not given)	2	.	94	98
N#Cc1c(F)cccc1NCc1cccs1	-27	101	94	90
c1ccc(-c2cccc(-c3ccccn3)n2)nc1	9	.	2.4*	2.6*
CC(C)N(C(=O)CSCc1nc2ccccc2[nH]1)c1ccccc1	.	100	91	84
Cc1ccc(N=C(N)c2ccccc2)cc1	6	104	121	94
COc1ccc(Nc2nc(C)c3[nH]c(=O)c(=O)n(-c4ccc(OC)c(Cl)c4)c3n2)cc1Cl	-32	99	.	.
CCSc1nc2c(cnn2-c2ccc(Cl)cc2)c(=O)[nH]1	-31	97	96	91
CCOC(=O)C1=C(C)SC2=NS(=O)(=O)CCN21	-28	.	99	80
Cc1c2cnn(-c3ccccc3)c(=O)c2c(C)n1CC(=O)N1CCCCC1	-16	112	114	86
O=C(Cn1c(=O)nc(-c2ccccc2)c2ccccc21)Nc1ccc(Cl)c(C(F)(F)F)c1	.	106	90	90
Cc1ccccc1NC(=O)c1c(O)c2ccccc2[nH]c1=O	-27	104	.	.
COc1ccccc1/C=N/NC=O	-6	.	105	102
CC1=CC(=O)C(C(=O)/C=C/c2ccc(N(C)C)cc2)C(=O)O1 (stereo not given)	-12	.	92	96
O=C1CSc2cc(S(=O)(=O)N3CCN(c4ccccc4)CC3)ccc2N1	.	102	97	84
CC1CN(c2ccc(Br)cc2)c2nc3c(c(=O)n(CCCO)c(=O)n3C)n2C1 (stereo not given)	-24	96	.	.
c1ccc(N=C2NN=C(c3ccccc3)CS2)cc1	-11	.	96	93
Cc1ccc(Cn2c(SCC(=O)N(C)C)nc3ccccc3c2=O)cc1	-15	.	79	98
CCOC(=O)C1CCN(Cc2nnc(-c3ccccc3C)o2)CC1	7	98	.	.
Cc1nn(C)c(C)c1NC(=S)NC1CCCC1	3	101	106	99
CC1(C)NNC(=S)NC1=O	2	.	92	98
Nc1ccc(C(=O)O)cn1	10	.	111	97
CSc1ccccc1N1CC(C(=O)O)CC1=O (stereo not given)	0	104	105	101
Cc1nnsc1-c1nc2ccccc2[nH]1	-54	.	102	87
COc1ccc(S(=O)(=O)Nc2noc3ccccc23)cc1OC	13	100	.	.
CCOC(=O)CN1CCN(c2ccc(C(F)(F)F)cc2N)CC1	5	107	97	94
CCSc1ncc(Cl)c(C(=O)N2CCN(c3cccc(Cl)c3)CC2)n1	-10	101	95	82
Cc1ccc(CNC(=O)CCc2c(C)nn3cnnc3c2C)cc1	-7	106	106	92
CCc1ccc(-c2cn3c(n2)sc2cc(C(=O)NCCCc4ccccc4)ccc23)cc1	.	108	122	94
CCOC(=O)c1cnc2c(CC)cccc2c1NCCO	-6	107	98	78
COc1cc(C2C(=O)N(C3CCCCC3)CC(=O)N2CCc2ccccc2)ccc1OC(C)C (stereo not given)	.	102	85	94
CCn1cc(-c2csc(N)n2)c(C)n1	-32	103	99	70
O=C(CSc1nc2ccccc2c(=O)[nH]1)c1ccc2c(c1)OCCO2	-16	.	92	85
CCOC(=O)c1c(C)oc2nc(C)nc(NCCc3ccc(Cl)cc3)c12	.	110	92	89
CN1CCN(P(=O)(c2ccccc2)c2nc3ccccc3s2)CC1 (stereo not given)	10	.	115	97
CC/C(=N/NC(=O)c1ccccc1C)c1ccc(O)cc1	-11	97	98	90
CC(C)(Oc1ccc(CCNC(=O)c2ccc(Cl)cc2)cc1)C(=O)O	-35&-42&-7&-13&-13&-2&-18&-10	98&99	89&92	93&87
Cc1sc2c(c1C)c(=O)n(-c1ccccc1)c1nnc(SCC(N)=O)n21	-3	100	.	.
CCOC(=O)CSc1nc2sc3c(c2c(=O)n1-c1ccccc1)CCC3	-23	100	.	.
COc1ccc(-c2noc(CSCC(=O)N3CCNC3=O)n2)cc1OC	8	108	.	.
O=c1[nH]nc2n1CCCCC2	-20	.	81	91
OC(c1ccccc1)c1nnc(-c2ccccc2)o1 (stereo not given)	5	.	100	101
COC(=O)C(C)N(C#N)c1nc(C)nc(C)n1 (stereo not given)	-3	103	93	104
CC1=C(c2ccc(C)cc2)S(=O)(=O)NC1=NCc1cccc(F)c1	-10	104	107	91
COc1ccc(-c2nc3ccccc3nc2-c2ccc(OC)cc2)cc1	-38	104	.	.
Cn1cc(C(=O)N2CCCCC2)c2nn(-c3ccccc3)c(=O)c-2c1	-23	103	.	.
Cc1nc2ccccc2c(=O)n1-c1cccc(NC(=O)c2ccc(Br)o2)c1	-6	103	88	96
CCCCC1CCC(C(=O)NCC2(N3CCOCC3)CCCCC2)CC1 (stereo not given)	1	98	.	.
CCOCCCn1c(SCC(=O)Nc2ccc(F)cc2)nc2c(sc3ccccc32)c1=O	.	104	95	101

(next part)
Structure	HCMV UL50-53 inh	GIV Gai3 FP	Sa growth 42C	Sa growth 42C second temp
O=C(Cn1cc(S(=O)(=O)N2CCCC2)c(S(=O)(=O)N2CCCC2)c1)N1CCCCCC1	7	101	109	103
COc1ccc(/C=C/C(=O)Nc2nc3n(n2)C(c2ccccc2)C=C(c2ccccc2)N3)cc1 (stereo not given)	-42	100	132	80
CC(=O)N1CCC(N(C(=O)Nc2ccccc2)C2CCCC2)CC1	.	104	105	86
O=C(Oc1ccc(-c2nnco2)cc1)C1c2ccccc2Oc2ccccc21	-16	.	54	34
CCNC(=O)c1ccc(-n2c(-c3ccccc3)cc3c2CCCCC3)cc1	-1	102	115	91
COc1ccc(OC)c(C2C(C(=O)Nc3ccc(Br)cn3)=C(C)NC3=C2C(=O)CC(C)(C)C3)c1 (stereo not given)	12	107	.	.
CCOC(=O)N1CCN(C(=O)c2ccc(N3CCCCC3)c(NC(=O)Nc3ccc(Cl)c(Cl)c3)c2)CC1	15	105	101	106
C=CCNC(=O)c1c(C)cc(C)cc1C	.	94	113	100
O=C1CN(C(=O)c2ccc(Cl)c(S(=O)(=O)N3CCCCCC3)c2)c2ccccc2N1	4	.	96	92
COC(=O)c1cccc(S(=O)(=O)N2CCC(NC(=O)Nc3cccc(F)c3)CC2)c1	3	103	115	89
O=C(COC(=O)c1ccccc1)Nc1cccc2nsnc12	3	.	99	94
CCSc1nn(CC(=O)Nc2ccc(C(C)C)cc2)c(N)c1S(=O)(=O)c1ccc(Cl)cc1	-19	94	.	.
Cc1cc(C)c(S(=O)(=O)Nc2ccc(-c3ccc(N4CCOCC4)nn3)cc2)c(C)c1	-20	102	.	.
CCN(CC)S(=O)(=O)c1ccc(NC(=O)/C=C/c2ccc(F)cc2)cc1	-26	.	102	73
O=C(NNC1=NCCCCC1)c1ccc(Br)cc1	-11	95	96	91
Cc1ccc(S(=O)(=O)NCC(=O)NC2CCCC2)cc1	13	101	115	98
CCCC(=O)Nc1cc(-c2nnc(OC)c3ccccc23)ccc1N1CCOCC1	-54	107	89	84
CS(=O)(=O)NCCc1csc2nc(-c3ccccc3)nn12	.	98	112	88
Cc1ccccc1OCc1cc(=O)n2c(C)csc2n1	-12	96	.	.
CCOc1ccc(-c2nc(CSCC(=O)NC3CC3)c(C)o2)cc1	5	109	99	92

Reprinted from the part before: 5 compounds, followed by the next part.
Structure	HCMV UL50-53 inh	GIV Gai3 FP	Sa growth 42C	Sa growth 42C second temp
Cc1ccc(S(=O)(=O)NCC(=O)NC2CCCC2)cc1	13	101	115	98
CCCC(=O)Nc1cc(-c2nnc(OC)c3ccccc23)ccc1N1CCOCC1	-54	107	89	84
CS(=O)(=O)NCCc1csc2nc(-c3ccccc3)nn12	.	98	112	88
Cc1ccccc1OCc1cc(=O)n2c(C)csc2n1	-12	96	.	.
CCOc1ccc(-c2nc(CSCC(=O)NC3CC3)c(C)o2)cc1	5	109	99	92
CCOC(=O)C(Sc1nc(C)cc(=O)[nH]1)c1ccccc1 (stereo not given)	-22	101	97	84
O=C(CSc1nc2ccccc2c(=O)n1C1CC1)c1ccc(Cl)cc1	.	100	106	91
CCNCc1ccc(OCc2ccc3c(c2)n(C)c(=O)n3C)c(OC)c1	-15	107	.	.
COc1ccc(C2C(C(=O)Nc3ccc4c(c3)OCCO4)c3ccccc3C(=O)N2c2ccc(OC)cc2)cc1 (stereo not given)	-11	104	.	.
O=C(CN1C(=O)CSc2ncccc21)NCc1cccc(Br)c1	-32	105	.	.
COc1cccc(NC(=O)CSC2=Nc3ccccc3C3=NC(CC(=O)NC4CCCCC4)C(=O)N23)c1 (stereo not given)	.	102	86	91
N#C/C(=C\c1ccc(OCC(N)=O)cc1)c1ccccc1	-49	103	100	40
Cn1ccc2cc(S(=O)(=O)N3CCC(C(=O)NCCc4ccccc4)CC3)ccc21	.	99	82	89
O=C(N/N=C1\CCc2ccccc21)c1ccccn1	-51	.	94	86
O=C(NCCNC1CCCC1)c1ccco1	8	99	82	93
CC1=C(C(=O)Nc2ccccc2)C(c2ccccc2)n2c(s/c(=C\c3cccs3)c2=O)=N1 (stereo not given)	.	105	110	77
CCOc1ccccc1N(C)C(=O)Cn1nc(Cc2ccncc2)c2ccccc2c1=O	-26	101	116	81
Cc1ccc(C)n1-c1sccc1C(=O)N1CCN(S(=O)(=O)c2cccc(F)c2)CC1	-22	.	100	66
Cc1ccc(NS(=O)(=O)c2ccc(-n3cccn3)cc2)c(Br)c1	.	109	123	92
COC(=O)C1=C(Nc2ccc(OC(F)(F)F)cc2)CSC1	-2	105	98	87
COc1cc(NC(=O)c2cc3c(=O)n(Cc4cccs4)ccc3nc2C)cc(OC)c1OC	.	103	105	86
CCOC(=O)C1=C(C)N=c2s/c(=C\c3ccc(N4CCCCC4)o3)c(=O)n2C1c1ccc2c(c1)OCO2 (stereo not given)	-22	108	.	.
CS/C(=N\S(=O)(=O)/C=C/c1ccccc1)NN	-9	109	63	63
CCn1cc(C(=O)OCC(=O)N2CCCC(C)C2)c(=O)c2ccc(C)nc21 (stereo not given)	-1	102	105	101
CCC1=C(c2ccc(C)cc2)S(=O)(=O)N=C1N1CCC(C(=O)N(C)Cc2ccco2)CC1	-35	105	120	82
COc1cc(CNc2nn[nH]n2)cc(Br)c1OCc1ccc(Cl)cc1	.	108	78	49
Cc1noc(C)c1C(=O)OCC(=O)NCC12CC3CC(CC(C3)C1)C2	-36	.	77	92
CCc1cccc(CC)c1NC(=O)c1c(Cl)nc2sccn12	-12	.	93	98
NC(=O)c1ccccc1NC(=O)C1SC(=Nc2cccc(Cl)c2)C(C(=O)NCc2ccco2)=C1N (stereo not given)	-14	.	102	91
O=C1Nc2ccc(Br)cc2C1=Cc1nc2ccccc2c(=O)n1Cc1ccccc1	-16	108	.	.
Cc1ccc(CN2CCCn3nc(C(=O)NCCc4ccccc4Cl)cc3C2=O)cc1	.	95	87	90
CCc1ccc(S(=O)(=O)NC2CCCCNC2=O)cc1 (stereo not given)	3	107	102	104
CCC1CCCCN1S(=O)(=O)c1ccc(NC(=O)c2cc(=O)c3c(C)cc(C)cc3o2)cc1 (stereo not given)	-15	105	103	84
O=C(Cc1ccc(NC2=NC3CS(=O)(=O)CC3S2)cc1)NCc1ccccn1 (stereo not given)	-32	105	.	.
C=CCN(CC=C)C(=O)CSc1nc(N)cc(N)n1	-18	.	89	94
COc1ccc(C2=NN(C(=O)CCCC(=O)O)C(c3ccc(Cl)cc3)C2)cc1 (stereo not given)	-31	104	.	.
COc1ccc(CCC(=O)CCc2ccc(OC)cc2)cc1	10	105	93	96
O=C1/C(=C/c2cccs2)CCCc2ccccc21	3	108	103	96
O=C(Nc1ccc(Cl)cc1C(O)c1ccccc1)c1cnn2c1NC(c1cccs1)CC2C(F)(F)F (stereo not given)	8	95	.	.
Cc1ccc(-c2nnc(SCC(=O)NC3CCCC3)nc2-c2ccc(C)cc2)cc1	.	102	88	95
COc1cc(C(=O)N(Cc2ccco2)Cc2ccccc2F)cc(OC)c1OC	-10	100	87	78
COc1cc(C(=O)N2C(C)CCCC2C)cc(OC)c1OC (stereo not given)	5	106	95	99
CN(C)C(=O)c1ccc2c(c1)N(CC(=O)O)C(=O)CO2	-8	102	.	.
COc1ccc2nc(C)cc(NCC3CCCO3)c2c1 (stereo not given)	-17	.	95	94
CSc1ccc(-c2nc3cccc(C)n3c2Nc2ccc3c(c2)OCO3)cc1	-26	102	93	74
CCc1ccc(OCC(=O)OCCN2CCCC2=O)cc1	-25	.	110	82
O=C(CSc1nnc(-c2ccc3c(c2)OCO3)o1)NCC1CCCO1 (stereo not given)	-21	103	.	.

Source: PubChem BioAssay (ICCB-Longwood Screening Facility, Harvard Medical School)
